Source: PubChem BioAssay (National Center for Advancing Translational Sciences (NCATS))
Cruzain inh Det = blocks cruzain activity in presence of Triton detergent. P25779. purified cruzain, Z-FR-AMC fluorescence, 0.01% Triton. Potency, µM, inactives show max response, negative = inhibition, most hits filed as inhibitors. actives 0.43% (n = 200,000);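 note: plate controls were neutral wells for no effect and buffer without enzyme for full effect; nearly all actives have a fitted effect of over 40% in size; top concentration of the series not given in the record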
Target sequence (P25779 123-467 limits assumed): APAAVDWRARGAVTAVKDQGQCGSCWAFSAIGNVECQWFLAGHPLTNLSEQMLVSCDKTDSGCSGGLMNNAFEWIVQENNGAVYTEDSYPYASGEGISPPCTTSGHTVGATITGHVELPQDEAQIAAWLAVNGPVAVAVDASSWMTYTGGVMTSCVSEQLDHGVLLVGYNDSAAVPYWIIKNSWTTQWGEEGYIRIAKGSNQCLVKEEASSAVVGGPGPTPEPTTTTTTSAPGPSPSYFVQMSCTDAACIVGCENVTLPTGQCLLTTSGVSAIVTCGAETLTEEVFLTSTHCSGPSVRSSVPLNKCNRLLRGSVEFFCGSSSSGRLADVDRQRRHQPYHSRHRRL
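Cysteine protease activity tested under reducing, mildly acidic conditions (100 mM sodium acetate pH 5.5, 5 mM DTT) plus 0.01% Triton X-100. Cruzain 1.5 nM; substrate Z-FR-AMC 2 uM; 15 min compound preincubation at room temperature.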
MARV entry inh = Marburg virus entry inhibition. actives 1.8% (n = 300,000). Marburg virus pseudotyped entry inhibition, cell reporter; control for the full effect not named in the record; about a third of the inactives were read at about 46 µM. Potency, µM (series often up to 37.8 µM), without a hit: at the top dose activity change, negative = inhibition, most hits filed as inhibitors; active = well fitted inhibition curve with a large enough effect; inconclusive = small, poorly fitted or top-dose-only effect, or effect the other way; inactive = flat fitted curve, though single readings scatter; tested in HEK293 cells; about a fifth of its hits are not listed in these tables; note: % is set by controls: 0 for no effect and ±100 for the full control effect; luciferase read-out
LASV entry inh = Lassa virus entry inhibition | Lassa virus pseudotype entry inhibition, cell reporter; control for the full effect not named in the record | AID 540256 | actives 1.2% (n = 300,000) | Potency, µM (series often up to 37.9 µM), inactives show at the highest dose activity change, negative = inhibition, actives largely listed as inhibitors; active means well fitted inhibition curve with a large enough effect; inconclusive means small, poorly fitted or top-dose-only effect, or effect the other way; inactive means flat fitted curve, though single readings scatter; tested in HEK293 cells; note: % is set by controls: 0 for no effect and ±100 for the full control effect; nearly all actives have a fitted effect of over 50% in size; luciferase read-out
NS1 inh = inhibitors of influenza NS1 protein function; S. cerevisiae slowed by influenza A NS1, growth recovery by OD600; Potency, µM (top dose mostly 46.1 µM), without a hit: at the top dose activity, positive = more growth; actives 0.4% (n = 270,000); AID 2326; active means well fitted rising curve with a large enough effect; inconclusive means small, poorly fitted or top-dose-only effect; inactive means no such curve, though single readings can be large or run the other way; note: nearly all actives have a fitted effect of over 50% in size
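Read-out: OD600 growth recovery of NS1-expressing budding yeast. Cells grown overnight at 30C in -URA glucose medium, washed, resuspended and diluted 1:100 in 2% galactose assay medium, pH 6.0. Same strain lacking NS1 served as positive control.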
RE007 growth inh = less growth of the S. pombe RE007 Vpr strain | S. pombe RE007 Vpr strain, BacTiter-Glo ATP luminescence, 24 h; control for the full effect not named in the record | Potency, µM (doses to about 92.2 µM), for inactives: top-dose activity change, negative = less growth | actives 0.21% (n = 360,000) | AID 651644; active = well fitted falling curve with a large enough effect; inconclusive = small, poorly fitted or top-dose-only effect; inactive = no such curve, though single readings can be large or run the other way;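 note: % is set by controls: 0 for no effect and ±100 for the full control effect; nearly all actives have a fitted effect of over 50% in size; the assay follows cell death caused by Vpr and the record does not say whether a fall means rescue or toxicity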
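Fission yeast RE007 carrying one integrated HIV-1 vpr copy, seeded at OD 0.01 in PMG+AL medium with 23 nL pinned compound. Grown 24 h at 30 degrees; viability read by BacTiter-Glo luminescence after 5 min.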
StopGo reporter = lowers the luciferase signal of an FMDV 2A StopGo reporter; human cells with a luciferase reporter of 2A StopGo recoding; control for the full effect not named in the record; AID 1159524; actives 1.2% (n = 410,000); Potency, µM (top dose mostly 57.9 µM), inactives show at the highest dose signal change, negative = less light; active = well fitted falling curve with a large enough effect; inconclusive = small, poorly fitted or top-dose-only effect; inactive = no such curve, though single readings can be large or run the other way; tested in HEK293T cells; note: % is set by controls: 0 for no effect and ±100 for the full control effect; nearly all actives have a fitted effect of over 45% in size; luciferase light after 4 h
SARS PLpro yeast = blocks SARS-CoV papain-like protease in a yeast assay; actives 0.19% (n = 330,000); AID 485353; S. cerevisiae expressing SARS-CoV PLpro, growth rescue; control for the full effect not named in the record; Potency, µM (top dose mostly 32.9 µM), inactives show top-dose activity, positive = growth rescue; active means well fitted rising curve with a large enough effect; inconclusive means small, poorly fitted or top-dose-only effect; inactive means no such curve, though single readings can be large or run the other way; note: 0% is about no effect; nearly all actives have a fitted effect of over 55% in size; growth read by luminescence after 48 h
Cruzain inh noDet = blocks cruzain activity in detergent-free assay; purified cruzain, Z-FR-AMC fluorescence, no detergent; Potency, µM, for inactives: max response, negative = inhibition, actives largely listed as inhibitors; actives 2.3% (n = 200,000); AID 1476;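 note: plate controls were enzyme without inhibitor for no effect and buffer without enzyme for full effect; nearly all actives have a fitted effect of over 40% in size; top concentration of the series not given in the record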
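Purified cruzain at 1.5 nM, pre-incubated 15 min with compound at room temperature in 100 mM sodium acetate pH 5.5, 5 mM DTT, 0.00005% Triton X-100. Reaction started with 2 uM Z-FR-AMC; AMC fluorescence increase over 60 s gives rate.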
Active calls of the source: *; ? = inconclusive; . = not tested or not shown; [ ] = remark or other dose. Unless noted, calls come from the whole dose curve; as a rule, active = well fitted curve in the direction sought with a large enough effect; inconclusive = small, poorly fitted or top-dose-only effect, or another doubt; inactive = no such curve, though single readings can be large; an effect the other way counts as inactive or inconclusive. Potency is the fitted concentration of half-maximal effect.

1	COCCN(C(=S)Nc1ccccc1OC)C(C)c1cccs1 (configuration not stated)
2	O=C(COC(=O)Cc1ccc(Br)cc1)NCc1ccc2c(c1)OCO2
3	COc1ccc(-c2nc(CN3CCCC(C(=O)NC4CCCC4)C3)c(C)o2)cc1 (configuration not stated)
4	CCc1ccc(-n2nc(C)c3c(C(=O)Nc4ccc(Cl)cc4)cc(C)nc32)cc1
5	Cc1ccc(S(=O)(=O)N2CCCCC2)cc1NC(=O)COC(=O)c1cc[n+]([O-])cc1
6	Cc1ccc(NC(=O)CCSc2nnc(C)s2)cc1
7	O=C(NNC(=O)c1ccccc1-n1cccc1)c1ccc(F)cc1
8	OC(COc1ccc(OCc2ccccc2)cc1)CN1CCCCC1 (configuration not stated)
Assay by compound	1	2	3	4	5	6	7	8
NS1 inh	-2%	.	0%	.	9%	3%	.	-6%
Cruzain inh noDet	-2%	.	-8%	-19%	-17%	-6%	.	2%
MARV entry inh	1%	1%[46.1 µM]	?	.	13%	1%	?	?
StopGo reporter	12%	-24%	-16%	?	13%	16%	1%	.
SARS PLpro yeast	-23%	2%	6%	.	-5%	22%	2%	-2%
LASV entry inh	9%	-11%	?	?	-9%	20%	9%[46.1 µM]	21%
RE007 growth inh	-1%	-14%	2%	.	2%	1%	3%	7%
Cruzain inh Det	-5.1%	.	-4.4%	-0.3%	-4.2%	-1.7%	.	2.0%

Rewritten with values under each structure: part of the list above.
Order of results – NS1 inh | Cruzain inh noDet | MARV entry inh | StopGo reporter | SARS PLpro yeast | LASV entry inh | RE007 growth inh | Cruzain inh Det
#4 CCc1ccc(-n2nc(C)c3c(C(=O)Nc4ccc(Cl)cc4)cc(C)nc32)cc1
 : . | -19% | . | ? | . | ? | . | -0.3%
#5 Cc1ccc(S(=O)(=O)N2CCCCC2)cc1NC(=O)COC(=O)c1cc[n+]([O-])cc1
 : 9% | -17% | 13% | 13% | -5% | -9% | 2% | -4.2%

(continued)
9	CCN(CC)CCCNC(=O)c1cc2c(-c3ccc(Cl)cc3)nn(C)c2s1
10	COC(=O)C(NC(=O)c1ccccc1C)(Nc1ncc(S(=O)(=O)c2ccc([N+](=O)[O-])cc2)s1)C(F)(F)F (configuration not stated)
11	Cc1cccc(C)c1NC(=O)CCc1nnc2ccc(N3CCCC3)nn12
12	COC(=O)c1ccccc1NC(=S)N(Cc1ccc2c(c1)OCO2)Cc1cc2cccc(C)c2[nH]c1=O
13	COc1ccc(CCNc2ccc(C(CC(N)=O)NC(=O)c3ccccc3)cc2[N+](=O)[O-])cc1 (configuration not stated)
14	COc1ccc(C(=O)NCc2ccc(N3CCN(C(=O)OC(C)(C)C)CC3)cc2)cc1
15	CCOC(=O)c1c(C)[nH]c(C(=O)CN2C(=O)NC(C)(CC(C)C)C2=O)c1C (configuration not stated)
16	Cc1ccc(Cn2c(=O)n(Cc3ccco3)c(=O)c3oc4ccccc4c32)cc1
Assay by compound	9	10	11	12	13	14	15	16
NS1 inh	-16%	10%	12%	?	1%	9%	.	.
Cruzain inh noDet	3%	18%	.	-70%	.	5%	.	14%
MARV entry inh	.	?	.	?	.	?	-26%[46.1 µM]	.
StopGo reporter	-6%	?	-4%	-1%	-10%	?	-10%	-16%
SARS PLpro yeast	-6%	6%	3%	-3%	0%	2%	0%	.
LASV entry inh	.	?	.	?	.	-14%	.	6%[46.1 µM]
RE007 growth inh	-16%	-3%	-4%	-11%	8%	17%	8%	.
Cruzain inh Det	-17%	0.5%	.	-4.8%	.	-4.4%	.	-2.2%

Three entries out of the list, ordered by molar mass, smallest number first.
15	CCOC(=O)c1c(C)[nH]c(C(=O)CN2C(=O)NC(C)(CC(C)C)C2=O)c1C (configuration not stated)
16	Cc1ccc(Cn2c(=O)n(Cc3ccco3)c(=O)c3oc4ccccc4c32)cc1
12	COC(=O)c1ccccc1NC(=S)N(Cc1ccc2c(c1)OCO2)Cc1cc2cccc(C)c2[nH]c1=O
Assay by compound	15	16	12
NS1 inh	.	.	?
Cruzain inh noDet	.	14%	-70%
MARV entry inh	-26%[46.1 µM]	.	?
StopGo reporter	-10%	-16%	-1%
SARS PLpro yeast	0%	.	-3%
LASV entry inh	.	6%[46.1 µM]	?
RE007 growth inh	8%	.	-11%
Cruzain inh Det	.	-2.2%	-4.8%

Next part.
17	CCC1SC2=NC(C)=C(C(=O)OCC(C)C)C(/C=C/c3ccccc3OC)N2C1=O (configuration not stated)
18	CCc1ccc(-n2nc(C)c3c(C)cc(=O)n(CC(=O)N4CCCc5ccccc54)c32)cc1
19	CCn1c(SCC(=O)O)nnc1-c1ccc(S(=O)(=O)N2CCCC2)cc1
20	Cc1noc(NS(=O)(=O)c2ccc(NC(=O)CSc3nnc(-c4ccccc4)n3C3CCCCC3)cc2)c1C
21	COC(=O)c1c(C(=O)OC)c(-c2cccc(F)c2)n2c1CS(=O)C2 (configuration not stated)
22	FC(F)(F)c1cc(-c2ccccc2)nc2ncnn12
23	O=C(COC(=O)[C@@H]1CCCN1S(=O)(=O)c1ccc(Cl)cc1)NC1CCS(=O)(=O)C1 (some centres not stated)
24	O=C(CN1CCSCC1)N/N=C/c1ccc(F)cc1
Assay by compound	17	18	19	20	21	22	23	24
NS1 inh	8%	.	8%	-39%	2%	3%	.	-9%
Cruzain inh noDet	-12%	5%	.	?	.	-15%	.	2%
MARV entry inh	-21%	.	11%[46.1 µM]	?	-7%[46.1 µM]	11%	30%[46.1 µM]	10%
StopGo reporter	-12%	-21%	7%	-8%	2%	.	-5%	37%[activator]
SARS PLpro yeast	-5%	.	3%	-12%	4%	18%	3%	3%
LASV entry inh	-17%	-4%[46.1 µM]	?	5%	1%[46.1 µM]	-16%	15%	12%
RE007 growth inh	-1%	.	3%	20%	13%	-10%	18%	14%
Cruzain inh Det	-4.6%	-0.6%	.	-2.7%	.	-3.2%	.	4.3%

Reprinted at random: 2 entries already listed.
11	Cc1cccc(C)c1NC(=O)CCc1nnc2ccc(N3CCCC3)nn12
18	CCc1ccc(-n2nc(C)c3c(C)cc(=O)n(CC(=O)N4CCCc5ccccc54)c32)cc1
Assay by compound	11	18
NS1 inh	12%	.
Cruzain inh noDet	.	5%
MARV entry inh	.	.
StopGo reporter	-4%	-21%
SARS PLpro yeast	3%	.
LASV entry inh	.	-4%[46.1 µM]
RE007 growth inh	-4%	.
Cruzain inh Det	.	-0.6%

More records.
25	Cc1ccc(S(=O)(=O)c2nc(S(=O)(=O)c3ccccc3)sc2NCCCOC(C)C)cc1
26	CCOC(=O)CC1COCCN1C(=O)CCc1nnc(-c2ccsc2)o1 (configuration not stated)
27	CCCc1cc2c(cc1NC(=O)c1ccccc1F)OCO2
28	CCCn1c(N)c(C(=O)CSc2n[nH]c(-c3ccc(C)cc3)n2)c(=O)[nH]c1=O
Assay by compound	25	26	27	28
NS1 inh	.	2%	-16%	.
Cruzain inh noDet	-11%	.	-2%	.
MARV entry inh	4µM*	?	-1%	?
StopGo reporter	25%	40%[activator]	13%	4%
SARS PLpro yeast	.	1%	-13%	4%
LASV entry inh	-33%[46.1 µM]	11%	26%	?
RE007 growth inh	.	-2%	26%	7%
Cruzain inh Det	-3.9%	.	-3.0%	.
